Compound activity (PubChem BioAssay)
RE007 growth inh: less growth of the S. pombe RE007 Vpr strain; Potency, µM (doses to about 92.2 µM), for the others: at the top dose activity change, negative = less growth; S. pombe RE007 Vpr strain, BacTiter-Glo ATP luminescence, 24 h; control for the full effect not named in the record; 0.21% of 360,000 active; AID 651644; active = well fitted falling curve with a large enough effect; inconclusive = small, poorly fitted or top-dose-only effect; inactive = no such curve, though single readings can be large or run the other way;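 also: % is scaled to controls: 0 for no effect and ±100 for the full control effect; nearly all actives have a fitted effect of over 50% in size; the assay follows cell death caused by Vpr and the record does not say whether a fall means rescue or toxicity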
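Fission yeast strain RE007, carrying one chromosomally integrated HIV-1 vpr copy, was seeded at OD 0.01 in PMG+AL medium with 23 nL pinned compound. After 24 h at 30 °C and 99% humidity, viability was read by BacTiter-Glo luminescence.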
Cruzain Triton: blocks cruzain activity in presence of Triton detergent; purified cruzain, Z-FR-AMC fluorescence, 0.01% Triton; Potency, µM, without a hit: max response, negative = inhibition, hits mostly inhibitors; 0.43% of 200,000 active; active = well fitted curve in the direction sought with a large enough effect; inconclusive = small, poorly fitted or top-dose-only effect, or another doubt; inactive = no such curve, though single readings can be large; an effect the other way counts as inactive or inconclusive;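 also: plate controls were neutral wells for no effect and buffer without enzyme for full effect; nearly all actives have a fitted effect of over 40% in size; top concentration of the series not given in the record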
Target sequence (P25779 123-467 limits assumed): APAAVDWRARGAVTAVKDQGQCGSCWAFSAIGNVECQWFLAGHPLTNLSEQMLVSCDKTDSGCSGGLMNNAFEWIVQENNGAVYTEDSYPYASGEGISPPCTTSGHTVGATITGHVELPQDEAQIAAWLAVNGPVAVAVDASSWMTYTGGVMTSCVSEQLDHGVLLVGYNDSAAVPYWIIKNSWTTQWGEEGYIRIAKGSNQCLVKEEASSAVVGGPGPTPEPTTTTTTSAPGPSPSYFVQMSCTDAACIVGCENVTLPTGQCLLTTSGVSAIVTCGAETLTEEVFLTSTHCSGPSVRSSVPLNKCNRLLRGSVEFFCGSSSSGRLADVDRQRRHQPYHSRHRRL
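Enzyme 1.5 nM, Z-FR-AMC 2 uM, NaOAc 100 mM pH 5.5, DTT 5 mM, Triton X-100 0.01%; 15 min RT compound preincubation; kinetic ex360/em450, 60 s delta.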
2A StopGo: FMDV 2A StopGo reporter, luciferase signal. human cells with a luciferase reporter of 2A StopGo recoding; control for the full effect not named in the record. Potency, µM (top dose mostly 57.9 µM), for the others: at the top dose signal change, negative = less light. AID 1159524. 1.2% of 410,000 active; active = well fitted falling curve with a large enough effect; inconclusive = small, poorly fitted or top-dose-only effect; inactive = no such curve, though single readings can be large or run the other way; tested in HEK293T cells; also: % is scaled to controls: 0 for no effect and ±100 for the full control effect; nearly all actives have a fitted effect of over 45% in size; luciferase light after 4 h
SARS PLpro yeast: inhibitors of SARS-CoV papain-like protease in yeast | S. cerevisiae expressing SARS-CoV PLpro, growth rescue; control for the full effect not named in the record | AID 485353 | 0.19% of 330,000 active | Potency, µM (top dose mostly 32.9 µM), for the others: top-dose activity, positive = growth rescue; also: 0% is about no effect; nearly all actives have a fitted effect of over 55% in size; growth read by luminescence after 48 h
NS1 function inh: inhibitors of influenza NS1 protein function. AID 2326. 0.4% of 270,000 active. Potency, µM (series often up to 46.1 µM), for inactives: at the top dose activity, positive = more growth. S. cerevisiae slowed by influenza A NS1, growth recovery by OD600; also: actives are rising curves; nearly all actives have a fitted effect of over 50% in size
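Read-out: OD600 growth recovery of NS1-expressing budding yeast. Cells grown overnight at 30C in -URA glucose medium, washed, resuspended and diluted 1:100 in 2% galactose assay medium, pH 6.0. Same strain lacking NS1 served as positive control.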
Marburg entry inh: Marburg virus entry inhibition; Marburg virus pseudotyped entry inhibition, cell reporter; control for the full effect not named in the record; about a third of the inactives were read at about 46 µM; Potency, µM (doses to about 37.8 µM), inactives show top-dose activity change, negative = inhibition, actives largely listed as inhibitors; 1.8% of 300,000 active; AID 540276; active = well fitted inhibition curve with a large enough effect; inconclusive = small, poorly fitted or top-dose-only effect, or effect the other way; inactive = flat fitted curve, though single readings scatter; tested in HEK293 cells; about a fifth of its hits are not listed in these tables; also: % is scaled to controls: 0 for no effect and ±100 for the full control effect; luciferase read-out
Cruzain noTriton: inhibitors of Trypanosoma cruzi cruzain without detergent | P25779 | purified cruzain, Z-FR-AMC fluorescence, no detergent | Potency, µM, inactives show max response, negative = inhibition, usual class: inhibitors | 2.3% of 200,000 active; active = well fitted curve in the direction sought with a large enough effect; inconclusive = small, poorly fitted or top-dose-only effect, or another doubt; inactive = no such curve, though single readings can be large; an effect the other way counts as inactive or inconclusive;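 also: plate controls were enzyme without inhibitor for no effect and buffer without enzyme for full effect; nearly all actives have a fitted effect of over 40% in size; top concentration of the series not given in the record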
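Purified cruzain at 1.5 nM, pre-incubated 15 min with compound at room temperature in 100 mM sodium acetate pH 5.5, 5 mM DTT, 0.00005% Triton X-100. Reaction started with 2 uM Z-FR-AMC; AMC fluorescence increase over 60 s gives rate.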
LASV entry inh: blocks Lassa virus binding to or entry into cells; AID 540256; Potency, µM (series often up to 37.9 µM), inactives show top-dose activity change, negative = inhibition, hits mostly inhibitors; 1.2% of 300,000 active; Lassa virus pseudotype entry inhibition, cell reporter; control for the full effect not named in the record; active means well fitted inhibition curve with a large enough effect; inconclusive means small, poorly fitted or top-dose-only effect, or effect the other way; inactive means flat fitted curve, though single readings scatter; tested in HEK293 cells; also: % is scaled to controls: 0 for no effect and ±100 for the full control effect; nearly all actives have a fitted effect of over 50% in size; luciferase read-out
Active calls of the source: *; ? = inconclusive; · = not tested or not shown; & = joins results of further samples; [ ] = dose if it differs, or a comment. Unless noted, calls follow the shape of the dose curve; as a rule, active means well fitted rising curve with a large enough effect; inconclusive means small, poorly fitted or top-dose-only effect; inactive means no such curve, though single readings can be large or run the other way. Potency is read from the fitted curve at half-maximal effect.

1) COc1ccc(Cn2nnnc2C(c2ccc3ncccc3c2)N2CCN(C3CCCCC3)CC2)cc1 (configuration not stated)
2) CCOc1ccc(CN(C)C(=O)CCN2C(=O)c3ccccc3C2=O)cc1OC
3) COc1cc(CCC(=O)OCC(=O)Nc2nc(C)c(Cl)cc2Cl)cc(OC)c1OC
4) CCOC(=O)c1cnc(Cc2ccccc2)[nH]c1=O
5) O=C1CCC(=O)c2oc3ccccc3c2N1
6) COc1ccc(N(CC(O)Cn2c(C)nc3ccccc32)S(=O)(=O)c2ccc(C)cc2)cc1 (configuration not stated)
7) O=C(NCCC1=CCCCC1)C(=O)NCC(c1ccco1)N1CCN(c2ccc(F)cc2)CC1 (configuration not stated)
8) Cc1ccc(C)n1CCN1CCN(C(=O)CSc2nc3ccccc3nc2N2CCOCC2)CC1

assay / compound | 1 | 2 | 3 | 4 | 5 | 6 | 7 | 8
RE007 growth inh | ? | -8% | 5% | 7% | 10% | -10% | 6% | -7%
Cruzain Triton | · | · | 1.8% | · | -5.9% | -7.1% | 1.0% | -3.8%
2A StopGo | -11% | -4% | · | -19% | 10% | -12% | -21% | -20%
SARS PLpro yeast | 2% | 1% | 2% | 4% | -2% | -6% | 6% | 6%
NS1 function inh | 3% | 15% | 5% | 4% | 1% | 8% | 9% | ?
Marburg entry inh | · | 12%[46.1 µM] | -7% | · | -8% | -1% | 10% | 3%&3%
Cruzain noTriton | · | · | 8% | · | -4% | 9% | 12% | ?
LASV entry inh | · | -10%[46.1 µM] | 8% | · | 9% | -1% | 5% | 5%

9) CCNc1nc(NCC)n2c(SCC(=O)Nc3ccc(CC)cc3)nnc2n1
10) CCCCC(=O)Nc1ccc(NC(=O)c2ccc([N+](=O)[O-])cc2Cl)cc1OC
11) c1ccc2[nH]c(-c3cnco3)cc2c1
12) O=C(CC1NCCNC1=O)OCCCc1ccccc1 (configuration not stated)
13) CCOC(=O)c1cnc2c(C#N)c(C)nn2c1-c1ccccc1
14) Cc1[nH]c2ccccc2c1CN1CCC(Cc2ccccc2)CC1
15) Cn1c(N)c(C(=O)COC(=O)c2ncc(Cl)c(Cl)c2Cl)c(=O)n(C)c1=O
16) COc1cccc(NC(=O)NCc2ccccc2F)c1

assay / compound | 9 | 10 | 11 | 12 | 13 | 14 | 15 | 16
RE007 growth inh | -14% | 11% | -15% | -6% | 2% | 6% | 1% | 9%
Cruzain Triton | · | 0.1% | · | 0.8% | -2.1% | · | · | ·
2A StopGo | -23% | 2% | 13% | -8% | 0% | ? | 15% | 84%[activator]
SARS PLpro yeast | -7% | 15% | -2% | -7% | 10% | -2% | 13% | 0%
NS1 function inh | · | 13% | -10% | 11% | 5% | · | · | -3%
Marburg entry inh | 0% | ? | · | · | · | ? | ? | ?
Cruzain noTriton | · | -3% | · | -2% | -8% | · | · | ·
LASV entry inh | 0% | 1% | · | · | · | ? | 4% | -14%

17) CCOc1cc(/C=N/Nc2cc(C)nc(-n3nc(C)cc3C)n2)ccc1O
18) O=C(Cn1ncc2c(=O)oc3ccccc3c21)NCCCN1CCCC1=O
19) O=C(CSCc1ccc(Br)cc1)NC1CC1
20) O=C(c1ccco1)N1CCN(S(=O)(=O)c2cccc(Cl)c2)CC1
21) O=c1c2ccccc2nc(-c2ccccc2)n1Cc1ccco1
22) CCC(C)[C@H]1COCCS(=O)(=O)N1Cc1ccc(Br)cc1 (some centres not stated)
23) COc1cccc(CN2CCNC(=O)C2CC(=O)NCCc2cccc(C)n2)c1OC (configuration not stated)
24) Cc1ccc2c(c1)[nH]c1c(N3CCN(Cc4ccccc4)CC3)ncnc12

assay / compound | 17 | 18 | 19 | 20 | 21 | 22 | 23 | 24
RE007 growth inh | 8% | -14% | -17% | -6% | 23% | 14% | -3% | -8%
Cruzain Triton | · | -1.0% | · | · | -0.1% | · | · | -6.6%
2A StopGo | ? | -18% | 17% | -12% | 8% | -25% | -3% | ·
SARS PLpro yeast | 1% | -10% | 15% | 7% | -4% | -17% | 1% | 14%
NS1 function inh | 0% | 4% | 7% | -5% | -9% | -40% | 7% | -90%
Marburg entry inh | · | 7% | 28%[46.1 µM] | -5% | 1% | · | · | 16µM*
Cruzain noTriton | · | -4% | · | · | 6% | · | · | 0%
LASV entry inh | · | -3% | 12%[46.1 µM] | 18% | -1% | · | · | 21µM*

25) CN(C)S(=O)(=O)c1ccc(Cl)c(NC(=O)CN2C(=O)NC(C)(C3CC3)C2=O)c1 (configuration not stated)
26) O=S(=O)(c1ccccc1F)N(Cc1ccco1)Cc1nnc(-c2ccccc2Br)o1
27) CC(=O)NNc1nc(-c2ccc(NC(C)=O)cc2)cs1
28) NCCc1nnc(SCC(=O)c2ccc(Cl)cc2)o1
29) O=C(c1cccc(S(=O)(=O)N2CCOCC2)c1)N1CCN(C/C=C/c2ccccc2)CC1
30) COc1ccc(CNC(=O)Oc2ccccc2)cc1Cl
31) O=C(Nc1nc(-c2ccccc2)c(-c2ccccc2)s1)c1ccc(S(=O)(=O)N2CCCC2)cc1
32) CC(C)NS(=O)(=O)c1ccc(OCC(=O)Nc2cccc(F)c2)cc1

assay / compound | 25 | 26 | 27 | 28 | 29 | 30 | 31 | 32
RE007 growth inh | 0% | 15% | 19% | 17% | -6% | 9% | 7% | -18%
Cruzain Triton | · | -9.5% | -6.6% | · | · | -0.8% | 5.6% | ·
2A StopGo | -10% | -23% | -16% | 5% | -21% | 49%[activator] | -21% | 32%[activator]
SARS PLpro yeast | 0% | 3% | -13% | 0% | 2% | -4% | -1% | 0%
NS1 function inh | -30% | -48% | ? | 1% | · | 4% | 7% | ?
Marburg entry inh | · | -19% | 25% | ? | 24% | 2% | 6% | ·
Cruzain noTriton | · | 5% | -7% | · | · | 17% | ? | ·
LASV entry inh | · | ? | 12% | 5% | 6% | ? | 19% | ·

33) O=C(N1CCOCC1)C1(c2ccc(Cl)cc2)CCCC1
34) O=C1C2ON(c3ccccc3)C(c3cccnc3)C2C(=O)N1Cc1ccccc1 (configuration not stated)
35) CC(C)CCN(C(=O)CNC(=O)c1ccco1)C(C(=O)NC1CCCCC1)c1ccco1 (configuration not stated)
36) CC(C)CN(CC(C)C)c1ccc(C=C2C(=O)NC(=S)NC2=O)cc1[N+](=O)[O-]
37) CCOc1ccc(NC(=O)CSc2oc(-c3ccccc3)nc2S(=O)(=O)c2ccc(Cl)cc2)cc1
38) COc1ccccc1-c1nnc(SCC(=O)N2CCC(C)CC2)o1
39) O=C(O)c1[nH]c(=O)[nH]c(=O)c1F
40) CCCN(CCC)S(=O)(=O)c1ccc(C(=O)NNc2nc(-c3ccccc3)c3cc(Br)ccc3n2)cc1

assay / compound | 33 | 34 | 35 | 36 | 37 | 38 | 39 | 40
RE007 growth inh | 6% | -5% | 10% | -7% | · | -19% | -1% | -7%
Cruzain Triton | 3.3% | -1.8% | -4.2% | ? | 0.1% | 0.8% | · | -2.1%
2A StopGo | -15% | ? | -21% | ? | -4% | 2% | -9% | -20%
SARS PLpro yeast | -11% | -10% | -1% | -2% | · | 16% | 1% | 10%
NS1 function inh | -7% | -19% | -10% | 16% | · | -13% | -1% | ?
Marburg entry inh | 6% | -16% | ? | -5% | -4%[46.1 µM] | 17% | -22%[46.1 µM] | ?
Cruzain noTriton | 5% | 25% | 10% | ? | ? | 3% | · | 10µM*
LASV entry inh | 0% | 14% | ? | ? | ? | 0% | 6% | -27%

Arranged by heavy-atom count (ascending): some entries from above.
19) O=C(CSCc1ccc(Br)cc1)NC1CC1
4) CCOC(=O)c1cnc(Cc2ccccc2)[nH]c1=O
16) COc1cccc(NC(=O)NCc2ccccc2F)c1
10) CCCCC(=O)Nc1ccc(NC(=O)c2ccc([N+](=O)[O-])cc2Cl)cc1OC

assay / compound | 19 | 4 | 16 | 10
RE007 growth inh | -17% | 7% | 9% | 11%
Cruzain Triton | · | · | · | 0.1%
2A StopGo | 17% | -19% | 84%[activator] | 2%
SARS PLpro yeast | 15% | 4% | 0% | 15%
NS1 function inh | 7% | 4% | -3% | 13%
Marburg entry inh | 28%[46.1 µM] | · | ? | ?
Cruzain noTriton | · | · | · | -3%
LASV entry inh | 12%[46.1 µM] | · | -14% | 1%

Going on with the list:
41) COc1ccc(N2CCN(c3ncnc4c3cnn4-c3ccc(F)cc3)CC2)cc1
42) O=C(Nc1ccc(F)cc1)OCCN1CCN(Cc2ccccc2)CCC1=O
43) N/C(=N\OC(=O)CCC1CCCC1)c1ccccc1
44) O=C1C(Cc2ccccc2)NC(=S)N1Cc1ccccc1 (configuration not stated)
45) COC(=O)c1ccc(Nc2cc(C)nc3ccc(C)cc23)cc1
46) COc1ccccc1NC(C)C(=O)N/N=C/c1ccccc1OCc1cccc(Br)c1 (configuration not stated)
47) COc1ccccc1NC(=O)COC(=O)c1ccc2ccccc2n1
48) COc1ccc(-c2c(C#N)c(N)nc3c2CCCCCC3)cc1OC
49) COc1ccccc1CCNC(C)CCc1ccc(O)cc1 (configuration not stated)
50) Cc1nc2c(ccc3nc(NC(=O)Cc4cccc5ccccc45)sc32)s1

assay / compound | 41 | 42 | 43 | 44 | 45 | 46 | 47 | 48 | 49 | 50
RE007 growth inh | · | -7% | -1% | 9% | -17% | -1% | 38% | 4% | -13% | -2%
Cruzain Triton | 0.1% | -1.8%&-3.6% | · | · | · | -4.3% | · | 1.5% | · | -1.4%
2A StopGo | -4% | 3% | 61%[activator] | -7% | 0% | -10% | -9% | · | -12% | ?
SARS PLpro yeast | · | 1% | 1% | 2% | -3% | -7% | -8% | 3% | 0% | -10%
NS1 function inh | · | -29% | -2% | 3% | -4% | 16µM* | · | 6% | -5% | 14%
Marburg entry inh | · | -9% | ? | · | 13µM* | ? | ? | -10% | · | -3%
Cruzain noTriton | 5% | -5%&-5% | · | · | · | ? | · | -4% | · | ?
LASV entry inh | ? | ? | 21% | · | ? | -25% | 11% | -14% | · | ?
